TRPV1 PAM = HTS Assay for Compounds that Act as Potentiators of the Vanilloid Receptor 1; Transient receptor potential cation channel subfamily V member 1 (Homo sapiens), Q8NER1; TRPV1-expressing cells, Fluo-8 calcium influx, capsaicin EC20 potentiation; host cell line not named in the record; control for the full effect not named in the record; potentiation, % at 8.33 µM; hit rate 0.02% among 320,000; AID 540277, 2011; active means potentiation above 80%; inconclusive means 30% to 80%; inactive means below 30%; further: 0% is about no effect
Target sequence (Q8NER1 whole entry, looked up): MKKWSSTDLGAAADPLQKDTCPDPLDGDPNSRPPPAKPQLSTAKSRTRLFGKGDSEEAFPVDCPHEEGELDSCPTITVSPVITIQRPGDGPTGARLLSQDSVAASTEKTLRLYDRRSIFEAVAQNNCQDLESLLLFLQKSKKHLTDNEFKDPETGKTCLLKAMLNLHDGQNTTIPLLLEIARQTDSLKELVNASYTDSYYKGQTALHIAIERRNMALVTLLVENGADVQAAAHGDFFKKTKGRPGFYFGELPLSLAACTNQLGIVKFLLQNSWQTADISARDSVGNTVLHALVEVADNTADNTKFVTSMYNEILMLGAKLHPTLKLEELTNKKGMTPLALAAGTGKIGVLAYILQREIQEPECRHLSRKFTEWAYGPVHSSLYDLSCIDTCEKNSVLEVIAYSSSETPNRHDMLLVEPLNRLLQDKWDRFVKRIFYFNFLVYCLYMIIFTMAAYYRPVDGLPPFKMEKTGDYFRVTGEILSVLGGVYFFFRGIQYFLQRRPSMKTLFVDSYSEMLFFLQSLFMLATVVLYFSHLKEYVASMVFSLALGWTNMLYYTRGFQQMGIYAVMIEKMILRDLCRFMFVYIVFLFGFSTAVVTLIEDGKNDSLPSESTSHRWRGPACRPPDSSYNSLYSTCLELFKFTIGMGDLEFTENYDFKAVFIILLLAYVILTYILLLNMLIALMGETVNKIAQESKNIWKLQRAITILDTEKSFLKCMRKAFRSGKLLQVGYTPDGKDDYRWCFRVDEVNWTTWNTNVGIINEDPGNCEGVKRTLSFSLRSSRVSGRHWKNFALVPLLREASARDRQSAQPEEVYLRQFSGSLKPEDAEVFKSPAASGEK
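Cells expressing TRPV1 were dye-loaded with Fluo-8 and read kinetically: 10 s baseline, 3 min after compound (agonist portion), then 2 min after EC20 capsaicin (allosteric enhancer portion). Calcium-bound dye fluorescence at 480/520 nm.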
Menin MLL FP FL = qHTS Assay for Inhibitors Targeting the Menin-MLL Interaction in MLL Related Leukemias: Competition With Fluorescein Labeled MLL-derived Peptide; 290,000 tested, under 10 active; Fluorescence polarization, fluorescein-MLL peptide displacement from menin; FP activity change, % at 61.4 µM; inconclusive = falling polarisation curve, or a change in total fluorescence; inactive = total fluorescence flat and polarisation flat or rising; no compound was filed as active; the % refers to the polarisation; negative = inhibition;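 further: % of control where 0% means no effect; inhibitors lower the polarisation; unlabelled MLL peptide was the positive control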
Sfp PPTase inh = qHTS Assay for Inhibitors of Bacillus subtilis Sfp phosphopantetheinyl transferase (PPTase). Biochemical Sfp PPTase activity, qHTS. hit rate 3.5% among 310,000. Potency, µM, without a hit: max response, negative = inhibition, most hits filed as inhibitors. 4'-phosphopantetheinyl transferase ffp (Bacillus subtilis), Q9F4F7; active means well fitted inhibition curve with a large enough effect; inconclusive means small, poorly fitted or top-dose-only effect, or another doubt; inactive means no such curve, though single readings can be large or run the other way;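 further: the enzyme is Sfp with the accession as filed and its product quenches rhodamine fluorescence; potency means the concentration at half of the fitted maximal effect; 0% = enzyme reaction without inhibitor and -100% = no enzyme wells; top concentration of the series not given in the record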
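Compounds were incubated with enzyme (final 15 nM) for 15 min at room temperature before substrate addition started the reaction. Fluorescence at 525 nm excitation, 598 nm emission was recorded immediately and after 30 minutes.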
gsp agonist = qHTS for Agonist of gsp, the Etiologic Mutation Responsible for Fibrous Dysplasia/McCune-Albright Syndrome: qHTS; Potency, µM (titrated, usually from 76.9 µM), for inactives: at the highest dose activation (cAMP increase), most hits filed as activators; AID 624287, 2012; gsp mutant cells, cAMP HTRF, 30 min; control for the full effect not named in the record; hit rate 0.13% among 340,000; active = well fitted activation curve with a large enough effect; inconclusive = small, poorly fitted or top-dose-only effect, or another doubt; inactive = no such curve, though single readings can be large or run the other way; cell line not stated here;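 further: phosphodiesterase inhibitor Ro 20-1724 added with compounds to block cAMP breakdown; potency means the concentration at half of the fitted maximal effect; nearly all actives have a fitted effect of over 60% in size; about a fifth of the inactives were tested at one dose only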
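Cells stably selected in G418 were plated at 2000/well, grown 16-24 hr, then given compounds in DMSO with the PDE inhibitor […] (300 uM solution added) for 30 min at 37C; cAMP was read by HTRF.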
TRPML1 inh = qHTS for Inhibitors of the Human Mucolipin Transient Receptor Potential 1 (TRPML1). AID 624415, 2012. Mucolipin-1 (Homo sapiens), Q9GZU1. activity change, negative = inhibition, % (concentration not given with the values). TRPML1-inducible cells, Ca2+ dye fluorescence, FDSS; stronger effect = lower value; inhibition of EC80 agonist-evoked calcium signal. hit rate 0.02% among 390,000; in the data active means activity change below about -50%; inconclusive means about -30% to -50%; inactive means above about -30%;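 further: stimulus is agonist 54-4 at its EC80 concentration; on the % scale 0 is the no-effect control and ±100 the full control effect; compound concentration not given in the record; the text of the record puts the active cut at -80%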
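TRPML1-DL cells, Tet-induced overnight (~16 h, 37 °C) at 1,500 cells/well, were loaded with Ca8 no-wash dye plus quencher for 45-90 min at room temperature. Compounds were pinned during FDSS kinetic reading; agonist 54-4 at EC80 (4 uM final) then added.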
ClpP mod = qHTS Assay for Activators of ClpP; ATP-dependent Clp protease proteolytic subunit (Bacillus subtilis (strain 168)), P80244; purified B. subtilis ClpP, FRET peptide cleavage, 20 min; Potency, µM (highest dose often 57.5 µM), for the others: at the highest dose activity change, negative = active; hit rate 1.9% among 340,000; AID 651965, 2013; active = well fitted falling curve with a large enough effect; inconclusive = small, poorly fitted or top-dose-only effect; inactive = no such curve, though single readings can be large or run the other way; further: potency means the concentration at half of the fitted maximal effect; the source files actives as falling curves though it sought activators and does not explain the sign; nearly all actives have a fitted effect of over 65% in size; many hits overshoot -100%
Target sequence (P80244 whole entry, looked up): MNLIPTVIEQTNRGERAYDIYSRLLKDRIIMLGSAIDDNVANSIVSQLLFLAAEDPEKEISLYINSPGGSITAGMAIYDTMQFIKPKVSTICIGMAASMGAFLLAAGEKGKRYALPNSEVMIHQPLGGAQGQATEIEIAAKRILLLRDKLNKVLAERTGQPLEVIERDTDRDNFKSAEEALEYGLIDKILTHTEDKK
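Purified B. subtilis ClpP, 10 microg/mL final in Tris/HCl pH8 with KCl, BSA, glycerol and Tween-20, cleaved an Abz/nitrotyrosine-quenched decapeptide. Fluorescence (ex 320, em 430) was read at 0 and 20 min at room temperature. Delta was normalized to 5.8 microM ADEP and DMSO/no-enzyme controls.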
gsp antag = qHTS for Antagonists of gsp, the Etiologic Mutation Responsible for Fibrous Dysplasia/McCune-Albright Syndrome: qHTS | gsp-mutant cells, cAMP HTRF, 30 min; control for the full effect not named in the record | Potency, µM (doses to about 76.9 µM), inactives show at the top dose activity change, negative = inhibition, actives largely listed as inhibitors | hit rate 0.4% among 340,000 | AID 624288, 2012; active = falling curve of any shape with a large fitted effect; inconclusive = falling curve, mostly with a smaller effect; inactive = flat or rising curve; cell line not stated here;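 further: intracellular cAMP measured with PDE inhibitor Ro 20-1724 present during compound exposure; potency means the concentration at half of the fitted maximal effect; on the % scale 0 is the no-effect control and ±100 the full control effect; nearly all actives have a fitted effect of over 65% in size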
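G418-selected cells were plated in DMEM/10% FBS for 16-24 h at 37C, then treated with compounds plus the PDE inhibitor […] (300 uM solution added) for 30 min at 37C. Intracellular cAMP was measured by HTRF after 30 min lysis at room temperature.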
Numbers without * were called inactive; ? = inconclusive; . = not tested or not shown; [ ] = dose if it differs, or a comment.

SMILES | TRPV1 PAM | Menin MLL FP FL | Sfp PPTase inh | gsp agonist | TRPML1 inh | ClpP mod | gsp antag
Cc1nn2c(C)nc3sc4c(c3c2nc1=O)CC(C)(C)OC4 | 9 | ? | 8% | ? | -4 | -2.5% | 5%
O=c1cnc(-c2ccc(Cl)cc2)cn1O | -6 | -4.2 | -4% | 24% | -15 | 3.9% | -20%
Cc1ccc(N2C(=S)NC3c4ccccc4OC2(C)C3C(=O)N(C)C)cc1 (stereo not given) | 3 | -1.3 | -9% | 3%[15.4 µM] | -24 | -0.2% | -7%
CC(=O)COC(=O)CCc1nc2ccccc2[nH]c1=O | 29 | 7.0 | 8% | -11% | 16 | ? | 3%
Cc1cc(C(=O)N/N=C/c2ccc(-c3ccccc3Cl)o2)n[nH]1 | 20 | 0.4 | 4% | -5% | -11 | 5.5% | -5%
COc1ccc(-c2c(C#N)c(N)nc3c2c(=O)n(C)c(=O)n3C)cc1 | 7 | -0.5 | 6% | 8% | -5 | ? | 56%[activator]
Cc1sc(C(=O)NCc2cccnc2)c2nc(C)n(CC(=O)NCc3cccnc3)c(=O)c12 | 29 | 4.1 | 23% | 38% | -2 | -0.6% | -3%
O=c1ccc(-c2nc3ccccc3n2Cc2ccccc2Cl)c[nH]1 | -16 | -0.4 | 11% | -4%[15.4 µM] | 51 | . | 3%
CCN(C(=O)COC(=O)Cc1c[nH]c2ccccc12)c1c(N)n(Cc2ccccc2)c(=O)[nH]c1=O | -7 | . | . | -22%[15.4 µM] | -8 | . | 10%
O=S(=O)(c1ccc(Br)cc1)N1CCN(c2ccccc2)CC1 | -1 | -1.6 | 16% | -23% | 63 | . | -4%
CCN(C(=O)CN1CC(C)OC(C)C1)c1c(N)n(Cc2ccccc2)c(=O)[nH]c1=O (stereo not given) | 1 | -2.5 | 18% | -5%[15.4 µM] | 5 | . | .
COc1ccc(-c2cn[nH]c2N)c(OC)c1 | 2 | -1.1 | 6% | -1% | -8 | -13% | -8%
COC(=O)CCCCCc1ccc(C(C)=O)s1 | -10 | 5.5 | 15% | ? | 14 | 2.1% | 11%
O=C(c1cc(-c2cccc(Cl)c2)on1)N1CCN(c2ccc(F)cc2)CC1 | -5 | -2.4 | 5% | 5% | 1 | . | 10%
Cc1cccc(N(CC(=O)NCCSc2ccccn2)S(=O)(=O)c2ccccc2)c1 | -8 | 2.0 | 6% | 1% | -8 | -1.5% | -13%
CC(C)C[C@H](NC(=O)NCc1ccccc1Cl)C(=O)O | -3 | -5.9 | 17% | -2% | 18 | -1.2% | 10%
CCOC(=O)c1[nH]c(C)c(/C(O)=C2\C(=O)C(=O)N(CCN(C)C)C2c2ccc(C)o2)c1C (stereo not given) | 14 | 2.6 | -2% | 5% | -13 | -0.3% | 9%
CN(CC(=O)Nc1ccc(Cl)c(C(F)(F)F)c1)C(=O)/C=C/c1ccco1 | ? | 2.1 | -22% | -31% | -18 | 1.5% | -22%
CC(=O)Nc1ccc(/C(N=Nc2ccccc2)=N/N=C(N)N)cc1 | . | . | . | -14% | -15 | -3.0% | -10%
CSCCC(NS(=O)(=O)c1ccc2c(c1)OCCO2)C(=O)N(C)Cc1ccc(F)cc1 (stereo not given) | 11 | . | . | 6%[15.4 µM] | 28 | 1.4% | 3%
Cc1noc(C)c1CCC(=O)NC1CCCN(Cc2ccc(CC(C)C)cc2)C1 (stereo not given) | ? | -1.6 | 3% | -34% | -24 | 0.2% | 2%
C[C@@H]1CN([C@@H](C)CO)C(=O)CCCn2nncc2CO[C@@H]1CN(C)C(=O)c1ccncc1 | . | . | . | -29% | 1 | -1.9% | .
COc1cccc(C(=O)c2c(C)c(CCC#N)n3ccccc23)c1OC | -5 | 2.7 | 15% | 12%[15.4 µM] | 7 | -2.1% | 3%
CC(=O)c1c(C)[nH]c(C(=O)NC2CCSc3ccccc32)c1C (stereo not given) | -2 | . | 4% | 7% | 43 | -3.4% | -9%
CCCn1nc(NC(=O)C2CCCO2)c2cc3cc(C)ccc3nc21 (stereo not given) | -20 | 4.8 | 13% | ? | 75 | -6.2% | -13%
O=C1/C(=C/c2cccs2)NC(=S)N1C1CC1 | -12 | 16 | -3% | -48%[inhibitor] | 67 | -2.5% | -5%
COc1cccc(OC)c1C(=O)NC(=S)Nc1ccc2oc(-c3ccncc3)nc2c1 | 3 | 0.1 | 10% | ? | -1 | . | 3%
CC(C)[N+]1(C)[C@@H]2CC[C@@H]1CC(OC(=O)C(CO)c1ccccc1)C2 (stereo not given in full) | -1 | . | . | . | -8 | 0.7% | -1%
COc1cc(NC(=O)CSc2ccc(-c3cccnc3)nn2)cc(OC)c1 | 2 | . | 6% | -6% | -6 | 1.2% | -21%
CC(C(=O)Nc1ccc2c(c1)OCCO2)N(C)Cc1c(F)cccc1Cl (stereo not given) | 7 | -6.5 | -1% | 0%[15.4 µM] | 1 | . | .
CC(=O)NC(CC(=O)Nc1cc(Cl)ccc1-n1cncn1)c1ccccc1 (stereo not given) | 8 | . | . | 2%[15.4 µM] | 7 | . | -2%
COc1cc(NC(=S)NCCO)c(OC)cc1Cl | 2 | 2.0 | -18% | -11%[15.4 µM] | -3 | . | 2%
COc1ccccc1CNC(=O)C(Cc1c[nH]c2ccccc12)NC(=O)OCc1ccccc1 (stereo not given) | -3 | 4.7 | 3% | -1% | -18 | 1.0% | -6%
O=C(COc1ccc(Br)cc1Cl)NC(=O)NCc1ccccc1 | -3 | 3.7 | 7% | 1% | 6 | 3.5% | 8%
CSCC[C@H](NC(=O)NCc1ccccc1F)C(=O)O | 16 | 1.3 | 9% | 0% | -15 | -0.7% | 13%
O=C1NC(=S)S/C1=C\c1ccc2ccccc2c1 | 6 | ? | 3% | -24% | -7 | -1.4% | -1%
CCN1CCCC1CNC(=O)c1cc(N)ccc1OC (stereo not given) | . | . | . | 17% | 13 | . | 4%
O=C1c2ccccc2C2=Nc3ccccc3SC(c3ccc(Cl)cc3)C12 (stereo not given) | 8 | -4.7 | 1% | -2% | -1 | -0.7% | -6%
CCOc1ccc(OCc2ccc(C(=O)N3CCc4ccccc4C3)o2)cc1 | 22 | 3.7 | -16% | -40%[inhibitor] | -2 | -11% | -12%
CC(=O)c1cccc(NC(=O)/C=C/c2ccc(S(=O)(=O)N3CCOCC3)cc2)c1 | . | . | . | -11% | -17 | 0.1% | ?
Fc1ccc(CSc2ncnc3nc[nH]c23)cc1 | -12 | -1.2 | 10% | -27% | 34 | 3.3% | 7%
CC(=O)c1cccc(NC(=O)NN2CCN(C)CC2)c1 | 2 | -0.1 | 10% | 18% | -3 | -0.1% | 19%
Cc1cc2occ(CC(=O)OCC(=O)Nc3sc4c(c3C#N)CCC(C)C4)c2cc1C (stereo not given) | 4 | 1.2 | 5% | -37%[inhibitor] | 49 | -2.6% | 2%
Cc1ccc(NC(=O)CSc2ccc(-c3ccco3)nn2)c(C)c1 | ? | -0.6 | 56µM* | 30% | 1 | . | 5%
O=C(NCc1c(Cl)cccc1Cl)c1ccc2nnsc2c1 | -11 | 0.0 | -9% | -8%[15.4 µM] | 15 | . | ?
Cc1c(Cl)cccc1NC(=S)NCC(c1cccnc1)N(C)C (stereo not given) | 1 | 0.3 | 10% | 0%[15.4 µM] | -22 | . | 5%
COc1ccc(N(CC(=O)N/N=C(\C)c2ccccc2)S(=O)(=O)c2ccccc2)cc1 | -6 | 0.5 | 11% | -64%[inhibitor] | . | -0.8% | 13%
Cc1ccc(NS(=O)(=O)c2cccc3cccnc23)c(Cl)c1 | 5 | -5.4 | 2% | 12% | 8 | 0.0% | -19%
C[C@H](CO)N1C[C@H](C)[C@@H](CN(C)C(=O)Nc2ccc(C(F)(F)F)cc2)Oc2ccc(NC(=O)Cc3ccccc3)cc2C1=O | . | . | . | 3% | 3 | 1.6% | -4%
C/C(=C/c1oc2ccc(O)cc2c1[N+](=O)[O-])N(C)C | 15 | 2.8 | 71µM* | 0% | -2 | 1.2% | ?
O=C(CN1C(=O)C(=O)N(C2CCCC2)C1=O)Nc1ccc([N+](=O)[O-])cc1 | -3 | . | . | ? | -9 | 1.0% | 19%
CCOCCCNC(=O)c1ccccc1SC | -6 | 2.2 | 14% | -43%[inhibitor] | 6 | -3.7% | 2%
COc1ccc(-c2ccc(C(C)=O)cc2)cc1C1C2C=CCCC2(C)C(=O)N1Cc1ccccc1 (stereo not given) | . | 1.4 | 45µM* | . | 29 | . | .
CC(C)(C)CC(=O)NCCCCCCNC(=O)CC(C)(C)C | 18 | -6.8 | 20% | 10% | 5 | 1.4% | -5%
CCOc1ccc(CCNC(=O)CN2CCN(Cc3ccccc3C)C2=O)cc1OCC | -1 | 1.3 | 13% | -48%[inhibitor] | -5 | -3.1% | -2%
CC(C)c1cc(NCCCN2CCOCC2)n2c(nc3ccccc32)c1C#N | 9 | 4.5 | 9% | ? | 6 | 28µM* | 3%
CC(C)(C)NS(=O)(=O)c1cnc(Cl)c(Cl)c1 | -2 | 0.8 | 15% | ? | 4 | -1.5% | -11%
CCOC(=O)C1=C(N)Oc2cc(C)oc(=O)c2C1c1cccnc1 (stereo not given) | 1 | -1.0 | 9% | ? | -5 | -2.9% | -2%

Source: PubChem (National Center for Advancing Translational Sciences (NCATS))
